miR-21 reporter: qHTS Assay for Modulators of miRNAs and/orActivators of miR-21; HeLa miR-21 FLuc reporter, luciferase, 48 h; Potency, µM (top dose mostly 38.3 µM), for inactives: at the top dose reporter change, positive = more light; 340,000 tested, under 10 active; AID 2288, 2010; active = well fitted rising curve with a large enough effect; inconclusive = small, poorly fitted or top-dose-only effect; inactive = no such curve, though single readings can be large or run the other way;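 note: % of control where 0% means no effect; miR-21 action dims this reporter so a rising signal means less miR-21 action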
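Luminescence from a firefly luciferase reporter carrying a miR-21 binding site downstream, stably expressed under a CMV promoter in HeLa cells that make miR-21 endogenously, reports miRNA modulation after 48 h compound exposure up to approximately 40uM final.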
Rango-impB inh: qHTS Assay for Inhibitors of Rango (Ran-regulated importin-beta cargo) - Importin beta complex formation; Potency, µM (highest dose often 92.2 µM), inactives show at the top dose inhibition of complex formation; AID 540263, 2011; Rango CFP/YFP FRET sensor + importin beta, 45 min; 340,000 compounds, 0.031% hits; active = rising FRET ratio curve, often small or poorly fitted; inconclusive = mostly compound fluorescence or quenching in the first reads; inactive = flat curves in all reads;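 note: potency is the fitted concentration of half-maximal effect; 0% = DMSO wells and 100% = buffer wells lacking importin beta; nearly all actives have a fitted effect of over 15% in size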
Target sequence (Q14974 whole entry, looked up): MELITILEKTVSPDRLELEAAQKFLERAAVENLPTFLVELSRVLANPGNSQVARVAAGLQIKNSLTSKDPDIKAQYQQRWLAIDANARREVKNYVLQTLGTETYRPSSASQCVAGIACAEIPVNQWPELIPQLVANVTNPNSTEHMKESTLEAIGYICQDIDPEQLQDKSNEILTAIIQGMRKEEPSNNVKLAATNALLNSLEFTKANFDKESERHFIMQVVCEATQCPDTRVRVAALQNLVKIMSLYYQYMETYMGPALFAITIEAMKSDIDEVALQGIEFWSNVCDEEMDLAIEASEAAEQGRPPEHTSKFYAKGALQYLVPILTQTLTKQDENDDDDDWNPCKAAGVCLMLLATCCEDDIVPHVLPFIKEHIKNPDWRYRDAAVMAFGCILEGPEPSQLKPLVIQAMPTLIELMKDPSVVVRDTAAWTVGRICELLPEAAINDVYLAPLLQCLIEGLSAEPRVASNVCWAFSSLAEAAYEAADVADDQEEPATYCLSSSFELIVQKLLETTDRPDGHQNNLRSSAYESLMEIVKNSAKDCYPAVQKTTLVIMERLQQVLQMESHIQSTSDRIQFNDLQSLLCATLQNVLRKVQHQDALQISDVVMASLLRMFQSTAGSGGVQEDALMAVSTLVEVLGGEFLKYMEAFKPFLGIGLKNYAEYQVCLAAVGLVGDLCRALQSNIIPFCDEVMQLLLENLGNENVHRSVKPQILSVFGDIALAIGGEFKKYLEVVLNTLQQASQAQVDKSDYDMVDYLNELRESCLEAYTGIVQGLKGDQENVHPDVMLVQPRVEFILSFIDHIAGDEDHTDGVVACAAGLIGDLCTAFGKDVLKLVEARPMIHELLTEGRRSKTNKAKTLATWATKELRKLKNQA
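FRET biosensor (snurportin 1 IBB flanked by EYFP and cerulean), 50 nM, with compound 5 min, then 0.125 microM importin beta in PBS, 1 mM DTT, 0.02% Tween-20, 0.1% BSA. CFP/YFP ratio read after 45 min at room temperature; pre-read flags interference.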
GLA inh pH 4.5: qHTS Assay for Inhibitors of Human alpha-Galactosidase at pH 4.5; Alpha-galactosidase A (Homo sapiens), P06280; purified enzyme, 4-MU-alpha-Gal fluorescence, pH 4.5; activity change, negative = inhibition, % at 105 µM; 230,000 tested, under 10 active; AID 1467, 2008; inconclusive = small, poorly fitted or top-dose-only inhibition, or a rising curve; inactive = flat fitted curve, though single readings scatter; no compound was filed as active;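 note: 0% = full activity with enzyme and -100% = basal without enzyme; dose as in the result columns while the protocol names 77 µM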
Rango release inh: qHTS Assay for Inhibitors of RanGTP induced Rango (Ran-regulated importin-beta cargo) - Importin beta complex dissociation. 340,000 compounds, 0.071% hits. Biochemical FRET Rango-importin beta, RanGTP-induced dissociation. AID 540253, 2011. Snurportin-1 (Homo sapiens) + GTP-binding nuclear protein Ran (Homo sapiens) + Importin …. Potency, µM (highest dose often 46.1 µM), inactives show top-dose activity change, negative = inhibition; active means falling FRET ratio curve, often poorly fitted, with flat reads before Ran was added; inconclusive means other falling curves, or compound fluorescence or quenching; inactive means flat or rising ratio curve;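 note: potency is the fitted concentration of half-maximal effect; % of control where 0% means no effect; nearly all actives have a fitted effect of over 45% in size; -100% = wells without RanGTP and RCC1; the record marks most hits as doubtful in a second field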
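Quantitative HTS using a FRET biosensor: 0.1 uM Rango, 0.25 uM importin beta, 0.6 uM Ran, 2 mM GTP, 0.2 uM RCC1 final, PBS with DTT, Tween-20 and BSA. Post-read taken 45 min after Ran addition.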
The depositor's hits bear a star; u = inconclusive; x = no result given; & = joins results of further samples.

Below each SMILES: Rango release inh	GLA inh pH 4.5	miR-21 reporter	Rango-impB inh
COc1ccc(Br)cc1/C=N/Nc1ccc(S(=O)(=O)Nc2ccccc2C(=O)O)cc1[N+](=O)[O-]
    -1.0%	x	x	7.8%
O=C(Cn1ncc2c([nH]c3ccccc32)c1=O)N1CCN(c2ccccc2F)CC1
    4.3%	x	0.4%	u
Cn1c(-c2ccc3ccccc3n2)nc2cnccc21
    -14.4%	12.5	-58.4%	u
COc1cccc(NC(=O)Nc2cc(C)ccc2OC)c1
    12.2%	9.1	-5.4%	-2.2%
O=C(c1ccco1)N1CCCSC1=Nc1ccccc1
    5.2%	7.5	-8.5%	2.3%
CCN(Cc1ccccc1)C(=O)CCS(=O)(=O)c1cc2c(cc1Cl)NC(=O)CO2
    -8.5%	x	0.7%&-0.5%	-2.4%
COC(=O)c1nn(-c2ccccc2)ccc1=O
    -14.5%	2.4	-0.1%	-2.0%
O=C(OCc1ccccc1)c1cccc(-c2nnc(-c3ccccc3)o2)c1
    -0.9%	-2.4	-15.2%	0.3%
Cn1nc(SCc2ccccc2)c(=O)n(C(c2ccccc2)c2ccccc2)c1=O
    7.0%	x	x	-0.4%
CCOC(=O)N1CCN(C(=O)C(=O)Nc2ccc3nc4n(c(=O)c3c2)CCCCC4)CC1
    -3.4%	-10.8	-6.7%	-2.8%
CC(=O)c1ccc(S(=O)(=O)NC2CCCCCCC2)cc1
    -2.1%	x	0.9%	-0.2%
CC(C)CC(NC(N)=O)C(=O)OCC(=O)NC(=O)NC1CCCC1 (configuration not stated)
    -2.7%	5.5	-0.2%	-1.0%
COc1ccc(-c2ccncc2)cc1OC
    8.5%	x	x	-4.0%
COC(=O)C(C(=O)OC)C(C)C(C(=O)OC)C(=O)OC
    -9.3%	-16.4	0.4%	-0.4%
O=C(CSc1ncn[nH]1)Nc1ccc2c(c1)OCCO2
    11.0%	4.6	-23.1%	-2.1%
O=C(Cn1c(-c2cncs2)nc2ccccc21)NCc1ccccc1
    14.4%	5.2	-2.8%	4.7%
CC(C)=CCN1CCN(Cc2ccc(N3CCNC3=O)cc2)CC1CCO (configuration not stated)
    26.4%	2.8	5.7%	-6.4%
O=C(Nc1ncc2c(n1)CC(c1ccco1)CC2=O)c1ccc(Cl)cc1 (configuration not stated)
    -1.9%	5.5	-5.1%	4.9%
O=C(NC(=S)N1CCCCC1c1cccnc1)c1ccc(Br)cc1 (configuration not stated)
    0.8%	x	-11.1%	0.0%
CCSc1nnc(NC(=O)c2cc(OC)c(OC)c(OC)c2)s1
    -2.8%	2.8	-1.0%	-1.4%
CCOc1cc(C(=O)NCc2ccc(-c3nc4ccccc4o3)cc2)cc(OCC)c1OCC
    9.4%	3.9	-11.6%	4.6%
CCCCn1nc(CC(=O)NCCN(CC)CC)c2ccccc2c1=O
    3.9%	2.6	-0.2%	-1.6%
Cc1c(C(=O)Nc2ccccc2F)sc2ncn(CC(=O)N3CCOCC3)c(=O)c12
    1.9%	x	-5.7%	-0.1%
Cc1nc(NC2=NC(C(=O)Nc3ccc(Cl)cc3)CC(=O)N2)nc2ccccc12 (configuration not stated)
    x	-7.3	0.5%	x
O=C(Nc1nnc(C2CC2)s1)C1=NN(C2CCS(=O)(=O)C2)C(=O)CC1 (configuration not stated)
    11.1%	-23.3	-2.1%	-3.6%
COc1cc(/C=C2/C(=O)ON=C2c2ccccc2)ccc1O
    -8.8%	-7.5	-17.6%	u
COc1ccc(CCNC(=O)c2cccc(NS(=O)(=O)c3ccccc3F)c2)cc1OC
    u	x	-2.2%	-0.4%
O=C(COC(=O)c1ccc(O)cc1O)NC(=O)Cc1ccccc1
    1.3%	x	x	3.4%
Cc1cccc(C)c1OCc1cc(C(=O)N2CCCCCCC2)no1
    -12.9%	x	-18.1%	1.6%
C1CN=C(NC23CC4CC(CC(C4)C2)C3)C1
    57.1%	1.1	-2.2%	-1.3%
CCOc1ccc(C(=O)Nc2ccc(N3CCCC3)cc2)cc1
    -7.4%	-0.6	-22.9%	-0.3%
COc1ccc2cc(C3=CC(=O)C[C@H](c4ccc5c(c4)OCO5)C3)ccc2c1
    -8.9%	x	x	-1.5%
O=C(c1c(F)cccc1F)N(Cc1cccs1)C1CCCC1
    -4.8%	8.3	11.7%	0.4%
Cc1cc(NC(=O)COC(=O)Cn2c(C)csc2=O)ccc1Br
    -1.8%	x	-14.9%	1.4%
Cc1cc(NS(=O)(=O)c2ccc(NC(=O)/C=C/c3ccccc3)cc2)nc(C)n1
    0.3%	x	x	-0.7%
CN(Cc1nc(-c2cnccn2)no1)CC(O)c1ccccc1 (configuration not stated)
    -1.7%	-7.4	1.8%	-2.9%
Cc1ccc(C2Nc3ccccc3C(=O)N2CCCN2CCOCC2)cc1 (configuration not stated)
    -5.9%	3.0	-6.2%	-1.4%
O=C(NN1C(=O)c2ccccc2NC1c1cccnc1)c1ccc([N+](=O)[O-])cc1 (configuration not stated)
    -7.0%	-9.2	-0.1%	-4.0%
O=C(NCCOc1ccc(Cl)cc1)C1CC(=O)N(c2ccc3c(c2)OCCO3)C1 (configuration not stated)
    -7.0%	x	x	5.1%
CCOC(=O)C(c1ccccc1)C(Nc1cc(C(F)(F)F)cc(C(F)(F)F)c1)c1ccccn1 (configuration not stated)
    -19.2%	-2.3	-0.2%	3.2%

The final 2 entries of the part before are carried over, then new ones follow.
Below each SMILES: Rango release inh	GLA inh pH 4.5	miR-21 reporter	Rango-impB inh
O=C(NCCOc1ccc(Cl)cc1)C1CC(=O)N(c2ccc3c(c2)OCCO3)C1 (configuration not stated)
    -7.0%	x	x	5.1%
CCOC(=O)C(c1ccccc1)C(Nc1cc(C(F)(F)F)cc(C(F)(F)F)c1)c1ccccn1 (configuration not stated)
    -19.2%	-2.3	-0.2%	3.2%
Cn1c(=O)c(=O)n(C)c2cc(S(=O)(=O)N3CCCC3C(=O)NCc3cccs3)ccc21 (configuration not stated)
    -2.5%	-2.2	-2.6%	-14.0%
Cc1ccccc1C1NC(c2ccccc2C)C(C)C(=O)C1C (configuration not stated)
    -9.0%	x	-9.1%	1.4%
Cc1cc(C)cc(N(C(=O)c2csnn2)C(C(=O)NC(C)(C)C)c2cccnc2)c1 (configuration not stated)
    -2.3%	7.3	-2.1%	-2.3%
CC(=O)Nc1ccc(S(=O)(=O)N2CCN(Cc3csc(C)n3)CC2)cc1
    -13.0%	x	-0.5%	-0.8%
CCCCCCCNC(=O)C1(CC2CC(c3ccc(Cl)cc3)=NO2)CCN(C(=O)C2CCCC2)CC1 (configuration not stated)
    -7.7%	x	0.4%	0.0%
O=C(CC1N=C2c3ccccc3N=C(SCc3ccc(F)cc3)N2C1=O)NCc1ccco1 (configuration not stated)
    -13.6%	-0.1	1.1%	-1.2%
COc1ccccc1C1CC(c2ccc(Cl)cc2Cl)Nc2nc(N)nn21 (configuration not stated)
    -13.5%	-0.5	-19.6%	-0.3%
NC(=S)N=Nc1c(O)n(CCCl)c2ccc(Cl)cc12
    1.2%	2.1	19.7%	-4.7%
CC1=C(C(=O)OCCOC(C)C)C(c2cc3c(cc2Br)OCO3)C2=C(CCCC2=O)N1 (configuration not stated)
    u	-22.4	-1.4%	u
O=S(=O)(c1ccccc1)N1CCNCC1
    19.0%	x	x	0.0%
O=C(O)c1cccc(N2C(=O)CSC2c2ccccc2)c1 (configuration not stated)
    -9.5%	x	-1.2%	-2.8%
Cc1ccc(C2(c3ccccc3)NC(=O)N(CC(=O)N3CC(=O)Nc4ccccc43)C2=O)cc1C (configuration not stated)
    8.9%	x	x	-1.2%
O=S(=O)(Nc1nc2ccccc2nc1Nc1ccc2c(c1)OCCO2)c1cccs1
    u	-1.2	-24.7%	u
Cc1nn(Cc2ccc(Cl)cc2Cl)c(C)c1NC(=O)c1nn(C)cc1Cl
    -10.9%	-3.5	13.5%	8.4%
COc1cccc(NC(=O)C2CCN(S(=O)(=O)c3ccc4c(c3)N(C(C)=O)CCO4)CC2)c1
    18.0%	x	4.2%	1.5%
COc1ccc(N2CCN(C(c3cccc(OC)c3OC)c3nnnn3C3CCCC3)CC2)cc1 (configuration not stated)
    8.9%	-4.3	11.5%	-2.5%
CCOc1ccc(NC(=O)c2cc(F)c(F)cc2Cl)cc1OCC
    0.4%	0.8	-1.4%	-0.6%
COc1cc(NC(=O)c2cc([N+](=O)[O-])ccc2NC(=O)CNC2CCCCC2)cc(OC)c1
    5.9%	x	u	1.5%
C[C@H]1CN([C@@H](C)CO)C(=O)Cc2cc(NS(=O)(=O)c3ccc(Cl)cc3)ccc2O[C@@H]1CN(C)C(=O)Nc1cccc2ccccc12
    12.1%	x	x	5.2%
CCOP(=O)(OCC)C(NC(=O)Nc1ccc(Cl)c(Cl)c1)C(N)=O (configuration not stated)
    1.3%	-5.9	-0.2%	-4.8%
CC(=O)NC1=NN(C(C)=O)C(c2ccc(C(C)C)cc2)S1 (configuration not stated)
    10.0%	2.4	-30.5%	-2.2%
O=C(CCc1ccccn1)N1CCCC(N2CCN(c3ccc(F)cc3)CC2)C1 (configuration not stated)
    9.0%	x	-5.7%	u
CN1C(CC(=O)Nc2ccc(Cl)cc2Cl)c2ccccc2CC1(C)C (configuration not stated)
    -13.9%	-11.3	19.1%	-0.3%
COc1ccc(C(=O)NC23CC4CC(CC(C4)C2)C3)cc1
    -5.9%	x	-27.9%	-1.7%
Cc1cc(C)c2c(CN3CC(C)OC(C)C3)cc(=O)oc2c1C (configuration not stated)
    -6.6%	x	-4.6%	2.2%
C=C(C)COc1ccc(-c2ncnc(C(F)(F)F)c2-c2ccc(OC)cc2)c(O)c1
    8.9%	x	8.1%	0.2%
O=C(NCCc1ccccc1)C1CCN(C2CCN(Cc3ccco3)CC2)CC1
    -4.0%	x	2.1%	-1.2%
CCn1c(/C=C2\C(=O)Nc3ccccc32)nc2ccccc2c1=O
    -18.3%	-1.6	17.0%	3.3%
CCCCn1c(N)c(N(CC(C)C)C(=O)CCCSc2nncs2)c(=O)[nH]c1=O
    -9.5%	4.9	-1.6%	1.8%
CCOC(=O)C1=C(C)N(C[C@@H]2CC[C@@H](Cc3ccc4cc(OC)ccc4c3)O2)C(=O)NC1c1ccccc1 (some centres not stated)
    -9.5%	x	x	2.3%
O=C(Nc1ccccc1Cl)/C(Cl)=C(\Cl)S(=O)c1ccccc1 (configuration not stated)
    12.4%	2.4	u	-0.7%
CCCC(=O)Nc1ccc2c(c1)Cc1ccccc1-2
    -2.5%	x	-60.8%	3.4%
Cc1cc(Cl)c2oc(C(=O)NCCN3CCCCC3CO)c(C)c2c1 (configuration not stated)
    -4.8%	x	-36.7%	5.0%
Cc1cc(C)c(CN2CCN(C(=O)Cn3ccc(NC(=O)OCc4ccccc4)nc3=O)CC2)c(C)c1
    2.3%	x	x	4.3%
COc1ccc(NC(=O)C2CCN(S(=O)(=O)c3ccc4c(c3)NC(=O)CO4)CC2)cc1
    0.0%	x	3.1%	2.0%

Arranged by molecular weight (lowest first): some entries from above
Below each SMILES: Rango release inh	GLA inh pH 4.5	miR-21 reporter	Rango-impB inh
CC(=O)NC1=NN(C(C)=O)C(c2ccc(C(C)C)cc2)S1 (configuration not stated)
    10.0%	2.4	-30.5%	-2.2%
CN1C(CC(=O)Nc2ccc(Cl)cc2Cl)c2ccccc2CC1(C)C (configuration not stated)
    -13.9%	-11.3	19.1%	-0.3%
C=C(C)COc1ccc(-c2ncnc(C(F)(F)F)c2-c2ccc(OC)cc2)c(O)c1
    8.9%	x	8.1%	0.2%

A portion of the library, so the mix of outcomes need not match the whole.
